Assay outcomes as filed in PubChem BioAssay.
hNpr1 antagonist = human Npr1 receptor antagonism; AID 1347048; P16066; hit rate 1.6% among 76,000; Potency, µM (doses to about 46.3 µM), inactives show at the top dose activity change, negative = inhibition, usual class: inhibitors; HEK293 hNpr1 GloSensor cGMP, ANP-stimulated luminescence; active = well fitted inhibition curve with a large enough effect; inconclusive = small, poorly fitted or top-dose-only effect; inactive = no such curve, though single readings can be large or run the other way;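 note: nearly all actives have a fitted effect of over 60% in size; nearly all hits also lower the signal before the agonist is added; a reference antagonist and vehicle were the controls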
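HEK293 cells stably expressing human Npr1 and cGMP GloSensor pGS-40F, loaded 2 h with 2% GloSensor reagent, given compound 30 min at room temperature. Luminescence read before and 20 min after 0.1 nM hNppA.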
* hit, by the source's call; ? = inconclusive; [ ] = remark or other dose. % is set by controls: 0 for no effect and ±100 for the full control effect; potency is the fitted concentration of half-maximal effect.

#1 CCn1cc(CN2CCN(C(=O)Cc3c(C)noc3C)CC2)ccc1=O
- hNpr1 antagonist: -3.2%

#2 CN(C)[C@@H]1CN(C(=O)Cc2ccc(Cl)cc2)C[C@H]1CO
- hNpr1 antagonist: -0.4%

#3 Cc1ncc2c(n1)C[C@@H]1CC[C@H]2N1S(=O)(=O)c1ccccc1
- hNpr1 antagonist: 0.8%

#4 O=C1N(c2ccccn2)C[C@H]2CN(Cc3ccc(F)cc3)CCN12
- hNpr1 antagonist: -18.0%[70.6 µM]

#5 Cc1cccc(OCC(=O)N2[C@H]3CC[C@@H]2c2cnc(C)nc2C3)c1
- hNpr1 antagonist: 10.5%

#6 COc1cc2c(cc1CCc1ccccc1)N(C(=O)C1CCC(C)CC1)CC21CCN(C(C)=O)CC1 (configuration not stated)
- hNpr1 antagonist: ?

#7 COc1cc2c(cc1OCc1ccncc1)NC(=O)C21CCN(C(=O)c2cccnc2)CC1
- hNpr1 antagonist: 0.7%

#8 Cc1ccccc1C(=O)N1CCC2(CC1)c1nccn1-c1ccccc1CN2CC(C)C
- hNpr1 antagonist: -25.7%

#9 COc1cccc(CC(=O)N2CC(N(C)Cc3cccnc3)C2)c1
- hNpr1 antagonist: 4.7%

#10 Cc1ncc2c(n1)C[C@@H]1CC[C@H]2N1C(=O)c1cccnc1
- hNpr1 antagonist: 6.6%

#11 CN1Cc2ccccc2-n2ccnc2C12CCN(C(=O)c1ccn[nH]1)CC2
- hNpr1 antagonist: 1.0%

#12 O=C1CO[C@H]2CN(C3CCOCC3)C[C@H]2N1Cc1ccncc1
- hNpr1 antagonist: 4.5%[70.6 µM]

#13 CCC(CC)c1cc([C@H]2CN3CC[C@H]2C[C@@H]3CNC(=O)c2ccc(N(C)C)cc2)nc(-c2ccncc2)n1
- hNpr1 antagonist: -21.7%

#14 C=C[C@H]1CN2CC[C@H]1C[C@@H]2CNC(=O)CCCC(=O)O
- hNpr1 antagonist: 5.4%[70.6 µM]

#15 O=C(NC[C@H]1C[C@@H]2CCN1C[C@@H]2CN1CCN(c2ccc(F)cc2)CC1)Nc1ccccc1
- hNpr1 antagonist: -4.9%

#16 COc1cc2c(cc1Oc1ccccc1)NC(=O)C21CCN(Cc2nccn2C)CC1
- hNpr1 antagonist: 0.9%[70.6 µM]

#17 CC(C)NC(=O)[C@H]1CN2CC[C@H]1C[C@@H]2Cn1cc(COc2ccccc2)nn1
- hNpr1 antagonist: 1.3%[70.6 µM]

#18 Cn1cccc1CN1CCCC2(CC(c3ccccn3)=NO2)C1 (configuration not stated)
- hNpr1 antagonist: 0.0%[70.6 µM]

#19 CCn1cc(S(=O)(=O)N2[C@H]3CC[C@@H]2c2cnc(C)nc2C3)cn1
- hNpr1 antagonist: 9.7%

#20 O=C(c1ccccc1)N1C[C@@H]2C[C@H](C1)c1c(-c3ccc(Cl)cc3)ccc(=O)n1C2
- hNpr1 antagonist: 3.0%[70.6 µM]

#21 N#Cc1cccc(-c2ccc3n(c2=O)C[C@H]2C[C@@H]3CN(C(=O)Nc3ccccc3)C2)c1
- hNpr1 antagonist: -0.4%[70.6 µM]

#22 Cn1cc(CN2CCOC[C@H](O)C2)c2ccccc21
- hNpr1 antagonist: 3.8%[70.6 µM]

#23 O[C@H]1[C@H](NCc2ccncc2)[C@H]2CO[C@H](O2)[C@@H]1N1CCOCC1
- hNpr1 antagonist: 2.4%[70.6 µM]

#24 Cc1ncc2c(c1CNCC1(O)CNCCOC1)CCNC2 (configuration not stated)
- hNpr1 antagonist: 8.7%

#25 COc1cc([C@@H]2c3cc4c(cc3[C@H](O)[C@@H](CO)[C@@H]2C(=O)N2CCCC2)OCO4)cc(OC)c1OC
- hNpr1 antagonist: 0.8%

Part of the list above in a different format.
item	Compound	hNpr1 antagonist
6	COc1cc2c(cc1CCc1ccccc1)N(C(=O)C1CCC(C)CC1)CC21CCN(C(C)=O)CC1 (configuration not stated)	?
7	COc1cc2c(cc1OCc1ccncc1)NC(=O)C21CCN(C(=O)c2cccnc2)CC1	0.7%
8	Cc1ccccc1C(=O)N1CCC2(CC1)c1nccn1-c1ccccc1CN2CC(C)C	-25.7%
9	COc1cccc(CC(=O)N2CC(N(C)Cc3cccnc3)C2)c1	4.7%
10	Cc1ncc2c(n1)C[C@@H]1CC[C@H]2N1C(=O)c1cccnc1	6.6%
11	CN1Cc2ccccc2-n2ccnc2C12CCN(C(=O)c1ccn[nH]1)CC2	1.0%
12	O=C1CO[C@H]2CN(C3CCOCC3)C[C@H]2N1Cc1ccncc1	4.5%[70.6 µM]
13	CCC(CC)c1cc([C@H]2CN3CC[C@H]2C[C@@H]3CNC(=O)c2ccc(N(C)C)cc2)nc(-c2ccncc2)n1	-21.7%
14	C=C[C@H]1CN2CC[C@H]1C[C@@H]2CNC(=O)CCCC(=O)O	5.4%[70.6 µM]
15	O=C(NC[C@H]1C[C@@H]2CCN1C[C@@H]2CN1CCN(c2ccc(F)cc2)CC1)Nc1ccccc1	-4.9%
16	COc1cc2c(cc1Oc1ccccc1)NC(=O)C21CCN(Cc2nccn2C)CC1	0.9%[70.6 µM]
17	CC(C)NC(=O)[C@H]1CN2CC[C@H]1C[C@@H]2Cn1cc(COc2ccccc2)nn1	1.3%[70.6 µM]
18	Cn1cccc1CN1CCCC2(CC(c3ccccn3)=NO2)C1 (configuration not stated)	0.0%[70.6 µM]
19	CCn1cc(S(=O)(=O)N2[C@H]3CC[C@@H]2c2cnc(C)nc2C3)cn1	9.7%
20	O=C(c1ccccc1)N1C[C@@H]2C[C@H](C1)c1c(-c3ccc(Cl)cc3)ccc(=O)n1C2	3.0%[70.6 µM]
21	N#Cc1cccc(-c2ccc3n(c2=O)C[C@H]2C[C@@H]3CN(C(=O)Nc3ccccc3)C2)c1	-0.4%[70.6 µM]
22	Cn1cc(CN2CCOC[C@H](O)C2)c2ccccc21	3.8%[70.6 µM]
23	O[C@H]1[C@H](NCc2ccncc2)[C@H]2CO[C@H](O2)[C@@H]1N1CCOCC1	2.4%[70.6 µM]
24	Cc1ncc2c(c1CNCC1(O)CNCCOC1)CCNC2 (configuration not stated)	8.7%
25	COc1cc([C@@H]2c3cc4c(cc3[C@H](O)[C@@H](CO)[C@@H]2C(=O)N2CCCC2)OCO4)cc(OC)c1OC	0.8%

The list continues.
#26 Cc1ncc2c(n1)C[C@@H]1CC[C@H]2N1C(=O)C1(c2ccccc2)CC1
- hNpr1 antagonist: 0.1%

#27 Cn1cnc(S(=O)(=O)N2[C@H]3CC[C@@H]2c2cnc(-c4ccccc4)nc2C3)c1
- hNpr1 antagonist: 1.2%

#28 CN(C)c1ccc(C(=O)NC[C@H]2C[C@@H]3CCN2C[C@@H]3CN(C)c2ccccc2)cc1
- hNpr1 antagonist: -6.0%[70.6 µM]

#29 CC(C)N1CCN(C(=O)Cc2cccn2-c2ccc(F)cc2)CC1
- hNpr1 antagonist: 0.5%

#30 C#CCN(C)C[C@H]1CN2CC[C@H]1C[C@@H]2CNC(=O)c1ccccc1
- hNpr1 antagonist: -0.7%[70.6 µM]

#31 O=c1ccc(-c2cccs2)c2n1C[C@H]1C[C@@H]2CN(S(=O)(=O)c2cccc(C(F)(F)F)c2)C1
- hNpr1 antagonist: 5.7%

#32 COC[C@H]1CCCN1C[C@H]1CN2CC[C@H]1C[C@@H]2CNC(=O)c1ccc(C(F)(F)F)cc1
- hNpr1 antagonist: -0.8%[70.6 µM]

#33 Cc1ncccc1C(=O)N1[C@H]2CC[C@@H]1c1cnc(-c3ccc(F)cc3)nc1C2
- hNpr1 antagonist: -29.3%

#34 O=C(NC[C@H]1C[C@@H]2CCN1C[C@@H]2CN1CCN(c2ccccn2)CC1)c1ccc2c(c1)OCO2
- hNpr1 antagonist: -0.2%

#35 CCCS(=O)(=O)Nc1ccc(=O)n2c1[C@@H]1C[C@@H](CN(C(=O)c3ccc(F)cc3)C1)C2
- hNpr1 antagonist: -11.8%[70.6 µM]

#36 COc1ccc2c(c1)C1(CCN(S(=O)(=O)c3cccc(F)c3)C1)C(=O)N2C (configuration not stated)
- hNpr1 antagonist: -8.8%

#37 O=C(Nc1ccccc1)N1C[C@@H]2C[C@H](C1)c1c(-c3ccc(Cl)cc3)ccc(=O)n1C2
- hNpr1 antagonist: -1.4%[70.6 µM]

#38 CC(=O)N(C1CC1)C1CCOC2(CCNCC2)C1 (configuration not stated)
- hNpr1 antagonist: -14.3%

#39 O=c1c(-c2cccc(C(F)(F)F)c2)ccc2n1C[C@H]1C[C@@H]2CN(S(=O)(=O)c2cccs2)C1
- hNpr1 antagonist: 5.8%

#40 O=C(c1ccccc1)N1C[C@@H](c2ccc3c(c2)OCO3)[C@@H]2[C@H]1C1CCN2CC1
- hNpr1 antagonist: 1.1%

#41 O=S(=O)(NC[C@H]1C[C@@H]2CCN1C[C@@H]2CN1CCN(c2ccccn2)CC1)c1cccs1
- hNpr1 antagonist: 0.4%

#42 CC(=O)c1ccc(NC(=O)OC[C@H]2C[C@@H]3CCN2C[C@@H]3c2cc(C3CCCC3)nc(-c3ccncc3)n2)cc1
- hNpr1 antagonist: -16.6%

#43 COc1cc2c(cc1OCC1CC1)NC(=O)C21CCN(c2ccnc(C)n2)CC1
- hNpr1 antagonist: -6.7%[70.6 µM]

#44 COc1ccc2c(c1)C1(CCN(C(=O)C(C)C)C1)C(=O)N2C (configuration not stated)
- hNpr1 antagonist: 1.6%

#45 C=C[C@H]1CN2CC[C@H]1C[C@@H]2CNCc1ccc(C(F)(F)F)cc1
- hNpr1 antagonist: 4.1%[70.6 µM]

#46 COc1ccc(-c2cn(C[C@H]3CC4CCN3C[C@@H]4C(=O)NCc3ccccc3OC)nn2)cc1 (some centres not stated)
- hNpr1 antagonist: -3.7%

#47 COc1cc2c(cc1OCc1ccccc1)NC(=O)C21CCN(CC2CC2)CC1
- hNpr1 antagonist: -1.3%[70.6 µM]

#48 COc1ccc(OC)c(S(=O)(=O)NC[C@H]2C[C@@H]3CCN2C[C@@H]3c2cc(-c3ccco3)nc(C)n2)c1
- hNpr1 antagonist: 6.7%

#49 O=C1NCCOCCCN[C@H]2CCCC[C@@H]12
- hNpr1 antagonist: -1.7%

#50 O=C(NC[C@H]1C[C@@H]2CCN1C[C@@H]2CN1CCC(Cc2ccccc2)CC1)c1ccccc1
- hNpr1 antagonist: 0.1%[70.6 µM]

#51 CC(C)NC(=O)[C@H]1CN2CC[C@H]1C[C@@H]2Cn1cc(CO)nn1
- hNpr1 antagonist: 4.4%[70.6 µM]

#52 C=C[C@H]1CN2CC[C@H]1C[C@@H]2CNC(=O)c1ccc(C#N)cc1
- hNpr1 antagonist: 4.1%[70.6 µM]

#53 Cc1cc(C)cc(CN2CCC3(CCNCC3)C2)c1
- hNpr1 antagonist: 3.5%

#54 CN1CCc2c([nH]c3ccccc23)C12CCNCC2
- hNpr1 antagonist: -0.6%

#55 CCNC(=O)N1CC2CN(C(C)C)CC(C1)O2
- hNpr1 antagonist: 2.2%

#56 COC[C@H]1C[C@@H](NCc2cn(C)c3ccccc23)[C@H](O)[C@@H]1O
- hNpr1 antagonist: -14.7%[70.6 µM]

Not all compounds are listed, so the mix of outcomes need not match the whole.
